RecA intein inh – Mtb RecA intein splicing inhibition | P9WHJ3 | cell-free RecA intein splicing, fluorescence | inhibition, %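 (about 9 µM by stock and volumes)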 | 0.75% of 290,000 active | AID 2221; in the data active means inhibition above about 30%; inconclusive means no clear call, values can overlap the other calls;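 further: 0% = vehicle wells and 100% = reference inhibitor control wells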
Target sequence (P9WHJ3 whole entry, looked up): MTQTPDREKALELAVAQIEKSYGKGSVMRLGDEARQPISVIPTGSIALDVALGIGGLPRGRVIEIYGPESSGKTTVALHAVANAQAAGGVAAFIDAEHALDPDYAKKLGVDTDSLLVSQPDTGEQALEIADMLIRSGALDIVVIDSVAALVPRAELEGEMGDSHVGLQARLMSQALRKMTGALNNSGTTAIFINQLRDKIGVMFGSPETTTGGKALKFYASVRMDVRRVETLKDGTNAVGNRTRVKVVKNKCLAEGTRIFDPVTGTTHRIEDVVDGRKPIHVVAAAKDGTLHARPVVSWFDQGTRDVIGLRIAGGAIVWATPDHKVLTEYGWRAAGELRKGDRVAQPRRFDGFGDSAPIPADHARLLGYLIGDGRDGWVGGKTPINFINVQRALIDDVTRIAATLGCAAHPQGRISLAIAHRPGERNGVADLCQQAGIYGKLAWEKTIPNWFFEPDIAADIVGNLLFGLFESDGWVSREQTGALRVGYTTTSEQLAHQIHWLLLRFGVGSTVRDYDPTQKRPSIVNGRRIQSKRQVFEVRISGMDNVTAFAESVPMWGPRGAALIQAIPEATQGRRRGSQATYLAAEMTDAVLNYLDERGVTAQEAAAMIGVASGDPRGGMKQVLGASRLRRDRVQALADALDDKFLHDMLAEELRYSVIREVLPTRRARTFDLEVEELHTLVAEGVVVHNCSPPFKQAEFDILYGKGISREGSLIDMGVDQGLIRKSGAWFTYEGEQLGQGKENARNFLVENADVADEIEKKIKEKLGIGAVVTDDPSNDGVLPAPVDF
Mtb growth – M. tuberculosis H37Rv growth inhibitors, H37Rv strain (AID 1626) | M. tuberculosis H37Rv growth inhibition; higher % means a stronger effect | inhibition, % at 10 µM; hits with a dose series show IC50 in µM | 0.95% of 220,000 active;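 active means confirmed in a dose series; inconclusive means inhibition above 80% but not taken into the dose series; inactive means below 80% or under 30% at every dose of the series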;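 further: bacteria incubated seven days before Alamar blue readout; 0% = bacteria only wells and 100% = bacteria with antibiotic wells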
Mtb betalactam – beta-lactam sensitization of Mtb H37Rv; M. tuberculosis H37Rv growth with meropenem, percent inhibition; hits of this screen are not shown here; inhibition, % at 25 µM; 0.27% of 330,000 active;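 active means about 74% or more and at least 40 points above the plate without the antibiotic, then above 30% in a dose series; inconclusive means first-round hits that could not be retested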;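 further: growth measured after seven days incubation then overnight dye step; 0% = bacteria only wells and 100% = bacteria with antibiotic; twin plates without the antibiotic show which effects depend on it; some results filed as inactive read as strong as hits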
Arbovirus inh – antivirals against arbovirus infection | arbovirus infection cell-based antiviral screen | inhibition, % at 10 µM | 0.37% of 200,000 active;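 active means inhibition from about 30%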;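 further: bluetongue infection of BSR cells; cell survival read as ATP light after 72 h; 0% = infected wells without compound and 100% = uninfected wells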
YopH inh – YopH (Yersinia) phosphatase inhibition; fluorescence Ex485/Em525; inhibition, %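 (about 10 µM by stock and volumes)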; 0.16% of 140,000 active;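 active means inhibition of 50% or more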;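 further: controls were vehicle for no effect and minimum signal wells for full effect; inactives centre near -20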
Arbovirus inh repeat – second read-out of Arbovirus inh, no call of its own (marks repeat the call); inhibition, %; measured here: 10K subset replicate screen; many hits read low in the repeat;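 first of two repeat runs on a subset; 0% = infected and 100% = uninfected wells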
An asterisk follows results filed as active; ? = inconclusive; . = no result given. The list is partial (hit frequency here may not be typical).

SMILES	RecA intein inh	Mtb growth	Mtb betalactam	Arbovirus inh	YopH inh	others
c1ccc(N=P(c2nc3ccccc3o2)(N2CCOCC2)N2CCOCC2)cc1	4.9	-5.9%	4.9	3.0	-8.6
Oc1c(Br)cc(Cl)cc1C=Nc1ccc(N2CCOCC2)cc1	-10.8	7.5%	0.1	-11.4	.
Cc1ccc(N(C)C(=O)N2CCN(c3ccccn3)CC2)cc1	0.8	11.2%	-7.9	2.0	-37.2	Arbovirus inh repeat=-2.5
COc1cc(NC(=O)CN2C(=O)c3ccccc3C2=O)c(C(=O)O)cc1OC	-0.1	-11.4%	5.3	-4.6	-46.1
CC1CCN(S(=O)(=O)c2ccc(C(=O)N3CCN(c4ccccc4F)CC3)cc2)CC1	-1.2	-19.8%	3.7	5.0	.
Cc1cc(Cl)ccc1OCCCC(=O)NCCCn1ccnc1	-1.2	4.0%	-5.2	0.3	.
Cc1ccc(CN(Cc2ccccn2)C(=O)Nc2c(F)cccc2F)cc1	-0.2	.	4.7	.	.
Cc1c(NC(=O)c2cc(CC(C)C)on2)c(=O)n(-c2ccccc2)n1C	0.6	2.9%	-1.9	14.4	-58.5
Cc1ccc(C)c(OCc2nnc(SCC(=O)NC(=O)NCc3ccco3)o2)c1	2.7	4.1%	3.4	-5.2	.
O=C(c1ccccc1F)N1CCN(Cc2nc3sc4c(c3c(=O)[nH]2)CCCC4)CC1	2.5	.	43.0	.	.
CCOC(=O)c1c(C)[nH]c(C)c1C(=O)COC(=O)c1c(OC)cccc1OC	0.9	-8.5%	3.9	-2.5	-27.2
CCN(CC)S(=O)(=O)c1ccc(C)c(NC(=O)c2cc(C)oc2C)c1	5.0	-3.3%	-2.0	14.5	.
CCc1ccc(NC(=O)C(=O)N/N=C(\C)CC(=O)NCc2ccc(Cl)cc2)cc1	-2.7	?	-0.9	1.3	.
CC(C)(C)NC(=O)COC(=O)CNC(=O)c1cc(Cl)cc([N+](=O)[O-])c1	-2.5	4.0%	1.3	-1.7	-1.4
O=C(NC1=NCCS1)c1ccncc1	7.4	8.5%	3.8	0.0	-18.6
O=C(Nc1nccs1)c1ccc(F)c(S(=O)(=O)N2CCOCC2)c1	-2.5	.	-5.6	.	.
Cc1nn(CC(=O)NCc2cccc3ccccc23)c(=O)c2ccccc12	-2.6	-10.3%	2.5	-22.0	21.1
COc1cccc(N2CCN(c3nc(C)cc(C)c3C#N)CC2)c1	6.9	.	2.9	.	.
O=C(NC(=S)N1CCN(c2ccc([N+](=O)[O-])cc2)CC1)c1ccccc1	0.3	6.0%	3.1	-3.5	.
COc1ccc(-c2cc3ccc(OC(C)C(=O)O)cc3oc2=O)cc1 (centres undefined)	-198.5	.	-1.3	.	.
Cc1cc(C(=O)N/N=C/C=C/c2ccccc2)c(C)o1	0.5	-5.0%	6.1	-6.8	-30.7
CCn1cc(CCC(=O)O)c(C)n1	-1.0	-6.8%	-3.2	0.3	.
CCc1cccc(OCCCN2C(=O)NC(C)(C)C2=O)c1	-0.6	0.2%	1.6	0.0	-16.4
O=C(NCCCn1ccnc1)c1ccccc1Br	0.1	.	-1.7	.	.
CCCC(=O)Nc1sc(-c2ccccc2)c(-c2ccccc2)c1C(=O)O	5.7	.	-6.1	.	.
Cc1cc(N2CCN(C)CC2)nc2ccc(NC(=S)N3CCCCC3)cc12	-7.1	30.4%	.	-3.0	.
COc1ccc(C(=O)CC(Nc2ccc([N+](=O)[O-])cc2)c2ccc(Cl)cc2)cc1 (centres undefined)	1.7	41.4%	67.5	0.2	-14.9
O=C(CN1CCCCCC1)Nc1ccccc1	2.2	4.0%	-2.6	2.7	.
O=C1NCCCC1C(=O)NCCNC(=O)C(F)(F)F (centres undefined)	-3.3	-8.3%	7.9	-3.5	-49.7	Arbovirus inh repeat=3.5
O=C(c1cccs1)n1nc(-c2ccc(Cl)cc2)nc1NCc1ccco1	-3.7	-7.7%	-11.5	-4.6	0.3
FC(F)(F)c1ccc2c(c1)ncn2C1CCN(Cc2nnnn2C2CCCCC2)CC1	0.4	-1.0%	?	1.7	0.4
Cc1cccc2cc3c(NC(=O)C(C)(C)C)nn(CC(C)C)c3nc12	-22.4	.	10.2	.	.
CCN(c1ccccc1)S(=O)(=O)c1cc(C(=O)Nc2ccccc2Cl)ccc1F	11.8	5.5%	-3.2	8.9	-16.4
NNC1=N[C@H]2CS(=O)(=O)C[C@H]2S1	-0.9	-5.2%	-2.8	1.5	-12.6
COc1ccc(N2C(=O)c3cccc4c(N(C)CCO)ccc(c34)C2=O)cc1	-11.2	.	7.0	.	.
CCCCc1cc(=O)oc2cc(OCc3nn[nH]n3)ccc12	-3.2	-8.0%	-10.3	.	.
CCCOc1ccc(C(=O)NC(=S)Nc2nc3ccccc3s2)cc1	0.7	-2.5%	10.4	7.8	-28.1
O=C1CN(S(=O)(=O)c2cc(C(=O)O)ccc2Cl)c2ccccc2N1	-1.3	.	-1.9	.	.
OCCC1CN(C/C=C/c2ccco2)CCN1Cc1ccccc1 (centres undefined)	-0.7	.	-0.2	.	.
O=C(CSc1ccc(-c2ccc3c(c2)OCO3)nn1)Nc1nccs1	-0.2	11.2%	9.9	-1.9	.

The last 2 entries of the part before lead into the next.
SMILES	RecA intein inh	Mtb growth	Mtb betalactam	Arbovirus inh	YopH inh	others
OCCC1CN(C/C=C/c2ccco2)CCN1Cc1ccccc1 (centres undefined)	-0.7	.	-0.2	.	.
O=C(CSc1ccc(-c2ccc3c(c2)OCO3)nn1)Nc1nccs1	-0.2	11.2%	9.9	-1.9	.
Cn1c(=O)c2c(nc(N3CCCCCC3)n2CC(=O)c2ccc(Br)cc2)n(C)c1=O	2.5	4.2%	0.5	-10.8	-9.9
O=C(COc1ccccc1)Nc1c2c(nn1-c1ccc(F)cc1)CS(=O)(=O)C2	0.5	.	-6.5	.	.
COc1ccccc1OCC(=O)N/N=C1/C=C(C)CC1	-1.8	0.6%	-6.6	2.2	.
CCN(CC)C(=O)COc1ccc(N(C)S(=O)(=O)c2ccc(NC(C)=O)cc2)cc1	-0.2	1.3%	-3.5	.	.
Cc1ccc[n+](-c2[nH]c(=O)sc2/C=N/N=C(\[O-])CCn2c3ccccc3c3ccccc32)c1	-0.5	-8.6%	-4.7	.	.
COC(=O)C1CCN(C(=O)COC(=O)Cc2c[nH]c3ccccc23)CC1	-0.3	2.2%	-4.2	3.9	-44.2
COc1ccc(C(=O)N/N=C/C(C)c2ccccc2)cc1OC (centres undefined)	0.5	-13.5%	-2.6	-2.4	-35.0
N/C(=N\N=C\c1ccc2c(c1)OCO2)SC1CC(=O)N(c2ccc(C(=O)O)cc2)C1=O (centres undefined)	-0.7	-6.9%	62.5	1.9	.
O=C(NCc1ccncc1)Nc1ccccc1Cl	0.2	-3.9%	4.5	2.6	-9.5
Oc1ccc(-c2cnc3ccccc3n2)cc1	-2.4	.	65.5	.	.
Cc1ccc(-c2nc3ccccc3nc2Cl)cc1	12.4	8.4%	5.6	6.1	.
Cc1oc(-c2cc(F)ccc2F)nc1CN1CCN(c2ncnc3ccccc23)CC1	1.3	-9.9%	4.9	19.5	.
O=c1sc(Nc2ccccc2)nc2ccsc12	1.1	-2.8%	1.8	4.0	-27.8
Cc1cc(=O)oc2c3c(ccc12)OC/C3=N/N	-1.7	-11.1%	-2.7	.	.
COC(=O)c1cn(NC(=O)C2CCC(C(C)(C)C)CC2)c(=O)c2ccccc12 (centres undefined)	.	-3.5%	5.9	8.6	-14.2
CCCCCCn1c(=O)c(C(=O)Nc2cnccn2)c(O)c2ccccc21	1.0	?	99.6	-21.2	.
CCCCCCCCS(=O)C1CCS(=O)(=O)C1 (centres undefined)	0.9	4.7%	-6.5	-3.1	7.8
CCn1c(COc2ccc3ccccc3c2C)nnc1SCC(=O)Nc1cccc(C(=O)O)c1	-1.5	.	3.9	.	.
Cc1[nH]c(C)c(S(=O)(=O)N(C)Cc2ccccc2)c1C(=O)N1CCCCC1	6.5	.	?	.	.
CCN(Cc1ccccc1)C(=O)c1cc(S(=O)(=O)N2CCOCC2)cn1C	-2.2	.	-6.0	.	.
COc1ccc2[nH]c(=O)c(CNc3ccccc3)cc2c1	-4.5	-1.5%	14.8	-14.8	-21.3
CCn1c(SCC(=O)Nc2ccc(C)cc2)nnc1-c1ccccn1	2.2	-3.1%	-12.3	.	.
CC(C)(C)c1ccc(CNC(=O)c2ccc3c(c2)NC(=O)CO3)cc1	0.5	-25.0%	-5.0	-16.4	.
O=C(Nc1ccccc1)N(Cc1cccs1)C1CCCC1	2.5	3.2%	4.5	0.7	1.2
CC(C(=O)c1ccc(-c2ccccc2)cc1)[n+]1ccccc1 (centres undefined)	-3.5	-2.4%	-15.4	9.2	-44.2
Fc1cccc(Cl)c1CSc1nnc(CN2CCOCC2)n1-c1ccccc1	-0.5	-7.0%	-5.3	-3.7	-22.9
O=C(Cn1cncn1)NCc1cccc2ccccc12	-1.2	-12.8%	-13.2	8.6	-29.1
O=C(N/N=C/c1ccc(O)cc1)c1cccc(N/N=C/c2ccc(O)cc2)c1	0.6	-10.1%	38.6	.	.
COc1cccc(OCCNc2cc(Cl)ccc2[N+](=O)[O-])c1	1.5	8.8%	3.6	6.3	-18.8
O=C(C1CCN(S(=O)(=O)c2ccc(Cl)cc2)CC1)N1CCCC1	1.4	.	-5.7	.	.
CCOc1cc(S(=O)(=O)N2CC=C(c3ccc(F)cc3)CC2)c(OCC)cc1-n1cnnn1	0.3	-8.1%	-5.8	-23.2	-25.6
CC(=O)c1cccc(NC(=S)N2CCc3ccccc32)c1	-3.1	.	7.1	.	.
CC(C)OC(=O)CN1C(=O)C(=O)c2ccccc21	40.0*	-4.1%	-1.8	-5.2	11.8
C=CCn1c(SCc2csc(C)n2)nc2sc3c(c2c1=O)CCC(C)C3 (centres undefined)	15.3	-1.4%	1.9	-11.6	9.4
COc1ccc(NC(=S)N(C)CC2COc3ccccc3O2)cc1 (centres undefined)	1.3	4.9%	5.0	8.5	.
N#Cc1cc2[nH]c3ccccc3c2[n+](-c2ccc([N+](=O)[O-])cc2)c1N	6.0	-1.2%	-8.1	-4.2	.
CCN1CCN(Cc2cc(OC)c3c(c2)OCO3)CC1	2.9	.	2.1	.	.
COc1ccccc1-c1c(C(F)(F)F)oc2cc(OS(C)(=O)=O)ccc2c1=O	0.5	3.3%	-3.9	-0.4	-10.5
Cc1cccc(C(C(N)=O)c2ncc(C(F)(F)F)cc2Cl)c1 (centres undefined)	2.2	2.2%	-1.1	2.7	.
CC1=C(C(=O)N2CCOCC2)C(c2ccccc2F)C2=C(CCCC2=O)N1 (centres undefined)	-2.1	3.0%	-0.4	9.7	-28.2

Structural class, the entries above containing a furan ring, fused or not.
SMILES	RecA intein inh	Mtb growth	Mtb betalactam	Arbovirus inh	YopH inh	others
Cc1ccc(C)c(OCc2nnc(SCC(=O)NC(=O)NCc3ccco3)o2)c1	2.7	4.1%	3.4	-5.2	.
CCN(CC)S(=O)(=O)c1ccc(C)c(NC(=O)c2cc(C)oc2C)c1	5.0	-3.3%	-2.0	14.5	.
Cc1cc(C(=O)N/N=C/C=C/c2ccccc2)c(C)o1	0.5	-5.0%	6.1	-6.8	-30.7
O=C(c1cccs1)n1nc(-c2ccc(Cl)cc2)nc1NCc1ccco1	-3.7	-7.7%	-11.5	-4.6	0.3
OCCC1CN(C/C=C/c2ccco2)CCN1Cc1ccccc1 (centres undefined)	-0.7	.	-0.2	.	.

Next part:
SMILES	RecA intein inh	Mtb growth	Mtb betalactam	Arbovirus inh	YopH inh	others
O=c1[nH]c(=O)n(CCc2ccccc2)c(O)c1C=NCc1ccc2c(c1)OCO2	-1.1	-3.1%	0.3	-8.8	-10.6
COCCN(Cc1cc2cc3c(cc2n2nnnc12)OCO3)C(=O)c1ccccc1F	-2.4	-3.4%	-15.4	0.5	4.4
CCOC(=O)C1CCN(c2nc3ccccc3nc2C(C#N)C(=O)NCCc2ccccc2)CC1 (centres undefined)	.	.	.	-14.1	-30.3
O=C(CSc1nnc(-c2ccccc2)o1)NC1CCS(=O)(=O)C1 (centres undefined)	-0.4	-3.3%	1.3	-4.8	-22.6
CCOC(=O)N1CCC(NC(=O)CCc2c(C)nc3c(c(C)nn3C(C)(C)C)c2C)CC1	-0.2	1.1%	-3.3	1.7	-133.0
C=CCn1c(COc2ccc3c(c2)CCCC3)nnc1SCC(=O)Nc1cccc(SC)c1	1.9	>100µM*	0.4	-37.7	-38.9
Cc1cc(C)c(S(=O)(=O)Nc2c(C)n(C)n(-c3ccccc3)c2=O)cc1[N+](=O)[O-]	-0.6	.	-4.9	.	.
COc1ccc(-n2cc(CNCC3CC(=O)N(C4CC4)C3)c(-c3ccccc3Cl)n2)cc1 (centres undefined)	1.5	-2.5%	-6.8	15.8	.
CCCn1cc(S(=O)(=O)c2ccc(C)cc2)c(=O)c2cc(OC)c(OC)cc21	0.7	.	?	.	.

From PubChem BioAssay
